Screening results as filed in PubChem.
Sfp inh: qHTS Assay for Inhibitors of Bacillus subtilis Sfp phosphopantetheinyl transferase (PPTase). 4'-phosphopantetheinyl transferase ffp (Bacillus subtilis), Q9F4F7. Potency, µM, for inactives: max response, negative = inhibition, actives largely listed as inhibitors. AID 1490, 2009. 3.5% of 310,000 active. Biochemical Sfp PPTase activity, qHTS; active = well fitted inhibition curve with a large enough effect; inconclusive = small, poorly fitted or top-dose-only effect, or another doubt; inactive = no such curve, though single readings can be large or run the other way;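 also: the enzyme is Sfp with the accession as filed and its product quenches rhodamine fluorescence; potency is read from the fitted curve at half-maximal effect; 0% = enzyme reaction without inhibitor and -100% = no enzyme wells; top concentration of the series not given in the record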
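Compounds were incubated with enzyme (final 15 nM) for 15 min at room temperature before substrate addition started the reaction. Fluorescence at 525 nm excitation, 598 nm emission was recorded immediately and after 30 minutes.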
Menin MLL FP FL: qHTS Assay for Inhibitors Targeting the Menin-MLL Interaction in MLL Related Leukemias: Competition With Fluorescein Labeled MLL-derived Peptide | Fluorescence polarization, fluorescein-MLL peptide displacement from menin | FP activity change, % at 61.4 µM | 290,000 tested, under 10 active; inconclusive = falling polarisation curve, or a change in total fluorescence; inactive = total fluorescence flat and polarisation flat or rising; no compound was filed as active; the % refers to the polarisation; negative = inhibition;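 also: % of control where 0% means no effect; inhibitors lower the polarisation; unlabelled MLL peptide was the positive control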
TRPV1 potentiator: HTS Assay for Compounds that Act as Potentiators of the Vanilloid Receptor 1. Transient receptor potential cation channel subfamily V member 1 (Homo sapiens), Q8NER1. potentiation, % at 8.33 µM. 0.02% of 320,000 active. AID 540277, 2011. TRPV1-expressing cells, Fluo-8 calcium influx, capsaicin EC20 potentiation; host cell line not named in the record; control for the full effect not named in the record; active means potentiation above 80%; inconclusive means 30% to 80%; inactive means below 30%; also: 0% is about no effect
Target sequence (Q8NER1 whole entry, looked up): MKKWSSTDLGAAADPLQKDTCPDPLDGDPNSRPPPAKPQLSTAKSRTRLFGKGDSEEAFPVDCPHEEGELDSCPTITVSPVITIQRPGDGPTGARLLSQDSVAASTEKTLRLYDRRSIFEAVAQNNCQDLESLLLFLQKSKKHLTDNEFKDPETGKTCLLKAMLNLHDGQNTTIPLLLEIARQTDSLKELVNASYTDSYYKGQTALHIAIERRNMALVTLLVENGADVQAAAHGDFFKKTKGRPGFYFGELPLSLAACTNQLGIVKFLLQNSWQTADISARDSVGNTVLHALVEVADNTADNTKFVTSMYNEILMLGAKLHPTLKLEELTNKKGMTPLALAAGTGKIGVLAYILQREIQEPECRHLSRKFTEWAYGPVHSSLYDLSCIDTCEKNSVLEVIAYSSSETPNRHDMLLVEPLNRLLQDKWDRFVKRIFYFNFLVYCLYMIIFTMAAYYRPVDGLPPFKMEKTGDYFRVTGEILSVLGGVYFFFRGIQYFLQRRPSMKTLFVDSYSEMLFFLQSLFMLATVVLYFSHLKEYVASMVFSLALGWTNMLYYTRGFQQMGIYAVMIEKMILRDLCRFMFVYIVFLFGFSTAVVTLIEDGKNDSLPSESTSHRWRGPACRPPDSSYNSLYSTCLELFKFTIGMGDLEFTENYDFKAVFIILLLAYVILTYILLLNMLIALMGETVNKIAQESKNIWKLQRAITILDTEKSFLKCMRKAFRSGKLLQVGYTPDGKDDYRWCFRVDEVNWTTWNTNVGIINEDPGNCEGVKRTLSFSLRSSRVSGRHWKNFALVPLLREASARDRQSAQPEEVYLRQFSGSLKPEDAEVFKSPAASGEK
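Fluo-8 calcium influx in TRPV1-expressing cells, kinetic read (ex 480/em 520 nm). Compound added and read 3 min for agonist activity, followed by capsaicin at EC20 final and 2 min further read for enhancement.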
ClpP mod: qHTS Assay for Activators of ClpP; ATP-dependent Clp protease proteolytic subunit (Bacillus subtilis (strain 168)), P80244; purified B. subtilis ClpP, FRET peptide cleavage, 20 min; Potency, µM (doses to about 57.5 µM), inactives show at the highest dose activity change, negative = active; 1.9% of 340,000 active; AID 651965, 2013; active = well fitted falling curve with a large enough effect; inconclusive = small, poorly fitted or top-dose-only effect; inactive = no such curve, though single readings can be large or run the other way; also: potency is read from the fitted curve at half-maximal effect; the source files actives as falling curves though it sought activators and does not explain the sign; nearly all actives have a fitted effect of over 65% in size; many hits overshoot -100%
Target sequence (P80244 whole entry, looked up): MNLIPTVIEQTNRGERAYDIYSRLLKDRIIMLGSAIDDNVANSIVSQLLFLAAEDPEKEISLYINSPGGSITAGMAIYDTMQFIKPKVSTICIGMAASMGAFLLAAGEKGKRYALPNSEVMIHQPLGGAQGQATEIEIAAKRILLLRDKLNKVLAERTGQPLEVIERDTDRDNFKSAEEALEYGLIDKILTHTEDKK
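Buffer: 100 mM Tris/HCl pH8, 100 mM KCl, 0.05% low protease BSA, 2.5% glycerol, 0.01% Tween-20. ClpP 10 microg/mL final; 20 min RT; delta FRET normalized to ADEP and DMSO controls.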
CtBP-E1A inh: qHTS Assay for Inhibitors of the CtBP/E1A Interaction. CtBP / adenovirus E1A interaction (AlphaScreen). AlphaScreen GST-E1A/His-CtBP binding, 1536-well; active compounds read low; control for the full effect not named in the record. activity change, % (no concentration beside the values). 0.49% of 340,000 active. AID 651724, 2012; in the data active means activity change below about -65%; inconclusive means about -30% to -65%; inactive means above about -30%; also: % is scaled to controls: 0 for no effect and ±100 for the full control effect
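In 5 uL wells, 23 nL compound meets equimolar GST-E1A and His-CtBP (5X stock 125 nM each) for 2 h, 37 °C. Beads (5X, 50 ug/mL) then 1 h, 37 °C, dark.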
gsp agonist: qHTS for Agonist of gsp, the Etiologic Mutation Responsible for Fibrous Dysplasia/McCune-Albright Syndrome: qHTS; gsp mutant cells, cAMP HTRF, 30 min; control for the full effect not named in the record; Potency, µM (top dose mostly 76.9 µM), without a hit: at the top dose activation (cAMP increase), hits mostly activators; 0.13% of 340,000 active; active = well fitted activation curve with a large enough effect; inconclusive = small, poorly fitted or top-dose-only effect, or another doubt; inactive = no such curve, though single readings can be large or run the other way; cell line not stated here;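 also: phosphodiesterase inhibitor Ro 20-1724 added with compounds to block cAMP breakdown; potency is read from the fitted curve at half-maximal effect; nearly all actives have a fitted effect of over 60% in size; about a fifth of the inactives were tested at one dose only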
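Cells in DMEM/10% FBS with G418 were pretreated with compounds in DMSO plus […] (300 uM stock) for 30 min at 37C. cAMP was measured by HTRF (cAMP-d2 plus anti-cAMP antibody-K) after 30 min at room temperature.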
gsp antag: qHTS for Antagonists of gsp, the Etiologic Mutation Responsible for Fibrous Dysplasia/McCune-Albright Syndrome: qHTS; AID 624288, 2012; gsp-mutant cells, cAMP HTRF, 30 min; control for the full effect not named in the record; Potency, µM (highest dose often 76.9 µM), without a hit: top-dose activity change, negative = inhibition, actives largely listed as inhibitors; 0.4% of 340,000 active; active = falling curve of any shape with a large fitted effect; inconclusive = falling curve, mostly with a smaller effect; inactive = flat or rising curve; cell line not stated here;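 also: intracellular cAMP measured with PDE inhibitor Ro 20-1724 present during compound exposure; potency is read from the fitted curve at half-maximal effect; % is scaled to controls: 0 for no effect and ±100 for the full control effect; nearly all actives have a fitted effect of over 65% in size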
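Measurement of cellular cAMP by homogeneous time-resolved fluorescence following a 30 min compound exposure at 37C. The PDE inhibitor […] was present throughout; the assay buffer was DPBS with 0.05% BSA and 0.005% Tween 20.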
* marks the source's active call; other numbers are inactive results; ? = inconclusive; / = not tested or not shown; & = joins results of further samples; [ ] = remark or other dose. Some of the compounds tested (hit frequency here may not be typical).

SMILES	Sfp inh	Menin MLL FP FL	TRPV1 potentiator	ClpP mod	CtBP-E1A inh	gsp agonist	gsp antag
Cc1ccc(N2C(=O)/C(=C/c3ccc(CN(CCC#N)S(C)(=O)=O)o3)C(=O)NC2=S)cc1C	22µM*	?	6	/	/	/	/
CCCCCSc1cc(OC)c(CCNC)cc1OC	6%	-1.0	-3	-1.2%	-23	-5%	-7%
CN1C(=O)c2ccccc2Sc2ccc(C(=O)N3CCC4(CC3)OCCO4)cc21	15%	5.7	-5	0.3%	1	9%	-23%
OC(c1ccccc1)(c1ccccc1)C1CCNCC1	11%&4%	-5.8	1	-1.7%	3	/	4%
Cn1c(NN=O)nc2ccccc21	40µM*	0.7	-10	/	?	24%	-7%
Cc1ccc(OP(N)(=O)Oc2ccc(C)cc2)cc1	9%	1.2	-5	/	11	4%	4%
Cc1nn(Cc2ccc(Cl)cc2Cl)c(Cl)c1C(=O)Nc1ccc(OC(F)F)cc1	-33%	-0.6	-9	-0.7%	3	-30%[inhibitor]	-1%
Cc1ccc(-c2cn3c(=S)[nH]nc3s2)cc1	35µM*	0.2	3	1.0%	4	-6%	-8%
COc1cc2c(cc1OC)[C@@]13CCN4CC5=CCO[C@H]6CC(=O)N2[C@H]1[C@H]6[C@H]5C[C@H]43	4%	-0.4	6	1.5%	2	/	7%
O=c1[nH]c(=S)n(CCC2=CCCCC2)c(O)c1C=NCCCn1ccnc1	-3%	8.2	7	-2.0%	-7	0%	-7%
CN(C)C(=O)Oc1ccc(-c2cn3cc(C(F)(F)F)ccc3n2)cc1	5%	0.4	-2	10µM*	0	17%	-11%
COc1ccc(-c2nn(CCC#N)cc2C(=O)Nc2ccccc2Br)cc1	18%	0.6	-29	/	-5	-64%[inhibitor]	?
Cc1cc(C(=O)N=Nc2c(O)n(C)c3ccccc23)c(C)o1	16%	0.1	-1	-2.2%	-11	-7%	11%
CCCCn1c(O)c(C(C)=NCCc2ccccc2)c(=O)[nH]c1=O	-7%	-4.6	0	-29%	0	-37%	-5%
CNCCc1nc(N)n[nH]1	-9%	3.5	-2	-0.3%	-2	1%	11%
CC(C)COc1ccc(C2(C#N)CC[N+](C)(C)CC2)cc1	-9%	1.2	/	-1.5%	1	4%	6%
O=C(O)c1cccc2nc3ccccc3nc12	18%	0.9	11	1.3%	3	/	-11%
O=C1CN=C(c2cccc(Br)c2)c2cc(Br)ccc2N1	7%	5.5	0	/	-6	23%	1%
O=[N+]([O-])c1ccc(N2CCNCC2)cc1Sc1ccccn1	5%	4.8	1	/	2	-10%	3%
Nc1ccc(Sc2ccc(N)cc2)cc1	/	/	/	0.6%	-2	-88%[inhibitor]	12%
Cc1ccccc1-n1c(O)c(C=Nc2ccc(N(C)C)cc2)c(=O)[nH]c1=O	-29%	?	4	2.5%	-10	-38%[inhibitor]	-17%
CN1CCN(S(=O)(=O)c2cccc(C(=O)N3CCN(c4ccccc4F)CC3)c2)CC1	/	/	2	0.8%	0	?	4%
Nc1c2c(nc3sc4c(c13)CCCCC4)CCCC2	-18%	1.0	-1	2.5%	-12	2%	-21%
CC(c1ccccc1)[n+]1ccccc1 (stereo unspecified)	/	/	-23	1.2%	1	/	1%
Cc1ccc(-n2c(O)c(/C=N/NC(=O)c3ccncc3)c(=O)[nH]c2=O)cc1	-1%	?	12	-12%	/	-19%	-3%
CN1C(=O)/C(=C/C=C/c2ccco2)C(=O)NC1=S	13µM*	?	16	0.5%	-17	?	11%
CC(=O)c1ccc(S(=O)(=O)N2CCN(c3nc4c(C)c(C)ccc4cc3C#N)CC2)cc1	/	/	/	-17%	12	19%	-4%
CCOC(=O)C1(c2ccccc2)CCN(CCC(=O)Nc2ccc(F)cc2)CC1	/	/	-18	0.5%	2	-7%	6%
C[C@]12CCC3C(CC[C@H]4C[C@H](O)[C@H](O)C[C@]34C)C1CC[C@@H]2O (stereo partly specified)	/	/	/	0.8%	-1	-7%[15.4 µM]	-5%
O=C1CCCN1C(=O)c1cncc(Br)c1	11%	-1.0	?	-1.5%	7	-1%	10%
CCC(=O)OC1(c2ccccc2)C(C)CN(C)CC1C (stereo unspecified)	-11%	-3.1	-5	/	0	-19%	6%
CCSc1nnc(C(N)Cc2ccccc2)o1 (stereo unspecified)	7%	0.2	-6	-1.4%	-3	-32%	-1%
Nc1cccc2c1Cc1cc([N+](=O)[O-])ccc1-2	/	/	/	28µM*	1	4%[15.4 µM]	-1%
C[C@@H]1CN([C@H](C)CO)C(=O)CCCn2nncc2CO[C@@H]1CN(C)C(=O)Oc1ccccc1	/	/	/	-1.5%	-10	-38%[inhibitor]	/
CC(=O)C1C(=O)NC23CCCCC2C1c1ccccc1O3 (stereo unspecified)	-1%	1.9	-10	-2.3%	-5	0%	4%
CCOC(=O)C(O)(c1ccc(NC(=O)NC)cc1)C(F)(F)F (stereo unspecified)	28%	4.2	-2	/	-2	2%[15.4 µM]	16%
O=C(/C=C/c1ccccc1)NCCc1cnc[nH]1	14%	-1.0	12	-11%	-21	/	5%
COc1ccccc1OCC(=O)N1CCN(Cc2ccc3c(c2)OCO3)CC1	3%	-1.9	-5	-1.5%	-1	1%[15.4 µM]	0%
COc1ccc(C2SCC(=O)Nc3c2c(C)nn3-c2ccccc2)cc1OC (stereo unspecified)	28%	4.2	-1	0.6%	1	16%	-4%
COC1=CC=C2[C@H]3Cc4ccc(OC)c5c4[C@@]2(CCN3C)[C@H]1O5	1%&11%	-4.0&4.7	-19	-24%	-3	-36%[15.4 µM]	-3%
ClCCOCCCl	/	/	-3	-1.3%	-23	/	-4%
COc1ccc(CN2CCCC(C(=O)c3sccc3C)C2)cc1O (stereo unspecified)	14%	3.9	-4	-1.3%	-3	?	7%
O=C1/C(=C/c2cccnc2)N2CCC1CC2	21%	-1.0	4	/	2	?	11%
CCCc1nc2ccccc2c(=O)n1-c1ccc(OC)cc1	8%	4.4	-4	-2.8%	-1	-102%[inhibitor]	6%
Nc1ccc(Br)cc1	/	/	/	-1.0%	0	-20%	15%
C[C@@H]1CN([C@@H](C)CO)C(=O)c2cccc(NC(=O)c3ccncc3)c2O[C@@H]1CN(C)Cc1ccc(-c2ccccc2)cc1	/	/	/	1.9%	20	/	-10%
CN1Cc2cnnn2-c2ccccc2C1c1ccccc1 (stereo unspecified)	/	/	/	1.4%	3	/	8%
C=CCn1c(O)c(C(C)=NCCC2=CCCCC2)c(=O)[nH]c1=O	18%	-0.2	3	-0.2%	5	-17%	5%
CN1CCc2nc3sc(C#N)c(N)c3c(-c3cccs3)c2C1	50µM*	?	-5	-4.7%	-15	18%	-15%
CC(C)(C)C(=O)OC[N+](C)(C)CCOC(=O)C(O)(c1ccccc1)C1CCCC1 (stereo unspecified)	9%	-2.4	-4	/	0	-19%[15.4 µM]	-1%

More results.
SMILES	Sfp inh	Menin MLL FP FL	TRPV1 potentiator	ClpP mod	CtBP-E1A inh	gsp agonist	gsp antag
COC(=O)CCCCC1SCC(NC(=O)c2ccccc2)C1Cl (stereo unspecified)	0%	-2.4	23	1.1%	2	?	-8%
CN1C(=O)C(C2CCCCC2)C(=O)N(C)C1=O	/	/	/	-0.3%	9	-1%	5%
COc1ccc(CCNCc2ccccc2)cc1	-26%	-21	7	0.3%	/	7%	4%
Cc1cc(C)c(N=Cc2c(O)[nH]c(=O)[nH]c2=O)c(C)c1	1%	3.4	-14	/	3	-9%	2%
O=C1NC(=O)C(=Cc2ccc(Sc3ccccc3)o2)C(=O)N1	25µM*	11	29	/	6	3%[15.4 µM]	8%
COc1ccccc1CC(=O)N1CCN(CCc2ccccc2)CC1	8%	-3.0	0	/	1	-65%	9%
COc1ccc(C(=O)C2(C)N(O)C(C)C(c3cccs3)=[N+]2[O-])cc1 (stereo unspecified)	10%	-2.5	-2	-0.1%	2	11%	13%
CCn1c(-c2nn(-c3ccccc3)ccc2=O)n[nH]c1=S	56µM*	-3.2	7	/	0	-17%	-2%
Cc1ccc(NP(=O)(Oc2ccccc2F)Oc2ccccc2F)cc1C	4%	4.3	-2	-1.3%	0	0%	2%
O=c1[nH]c(=O)n(CCc2ccccc2)c(O)c1C=NCCN1CCNCC1	-3%	-0.6	4	-0.5%	0	?	3%
C[C@]12CCC3C(CC[C@H]4[C@H](O)[C@H](O)CC[C@]34C)C1CC[C@@H]2O (stereo partly specified)	/	/	/	/	4	-7%	7%
CC(C)[C@@]1(NC(=O)[C@@H]2C=C3c4cccc5[nH]cc(c45)C[C@H]3N(C)C2)O[C@@]2(O)[C@@H]3CCCN3C(=O)[C@H](Cc3ccccc3)N2C1=O	?	?	-1	/	/	/	/
O=c1c2ccccc2ncn1-c1ccc([N+](=O)[O-])c(C(F)(F)F)c1	2%	1.2	13	1.4%	-14	-29%	-3%
COC(=O)C1=C(c2ccc(-c3ccccc3)c(F)c2)C[C@@H]2CC[C@H]1N2C(=O)NCCNC(C)=O	/	/	-4	0.0%	1	5%	-1%
CC(=O)c1cn(Cc2ccc(F)cc2)c2ccccc12	-2%	4.5	9	-0.9%	3	-18%[15.4 µM]	-6%
O=C(Cc1cc(=O)oc2cc(O)ccc12)NN=Cc1ccc(N(CCCl)CCCl)cc1	/	/	/	/	?	30%	?
CCN(CC)P(c1n(C)cc[n+]1C)N(CC)CC	-7%	-2.9	-1	1.1%	/	-33%[inhibitor]	7%
C=CCn1c(O)c(C(C)=NCc2ccco2)c(=O)[nH]c1=O	11%	-1.3	1	-0.9%	5	?	13%
CCCCn1c(NS(=O)(=O)c2ccccc2)c(C(=O)OCC)c2nc3ccccc3nc21	9%	/	?	28µM*	-3	?	-9%
